S aureus helic – blocks Staphylococcus aureus DNA helicase. purified S. aureus helicase, fluorescence unwinding assay; about half of the hits fall short of the stated cut. inhibition, %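 (tested at about 80 µM)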. hit rate 0.05% among 120,000;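 active = both duplicates at 50% or more, or one of them with a favoured structure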;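 also: 0% = mean of negative control wells and 100% = mean of positive control wells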
MgrA-DNA mod – alters Staphylococcus aureus MgrA binding to DNA; inhibition, %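 (about 10 µg/mL by stock and volumes)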; fluorescence polarization; hit rate 0.13% among 84,000;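 active = above 50% in either of two replicates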;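 also: 0% = protein plus DNA without compound and 100% = DNA alone without protein; higher means less MgrA bound to DNA so lower polarization; one replicate is shown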
Numbers without * were called inactive; . = no result given; & = joins results of further samples. This is a subset; rates above refer to the full screens.

entry	MgrA-DNA mod	S aureus helic	molecule
1	.	14	CC(C)(C)C1CCc2c(sc(NC(=O)c3ccco3)c2C(=O)N2CCCC2)C1 (stereo not given)
2	-0.8	-1	C=CCC(Nc1ccc(OC)cc1)c1ccco1 (stereo not given)
3	2.3	.	Nc1ccc2c(C(F)(F)F)cc(=O)oc2c1
4	-0.6	9	CC(C[N+](C)(C)C)OC(=O)C1(c2ccccc2)CCCC1 (stereo not given)
5	-1.2	.	COc1cc(OC)cc(-c2nc3ccccc3c(=O)n2NC(=O)c2ccc(Br)cc2)c1
6	.	10	CCOc1ccccc1CN(C)CCc1ccccn1
7	-0.4	11	CCN(CC)CCN1Cc2c(sc(C)c2C)N(C(=O)c2ccccc2)C1
8	-1.3	.	N/C(=N\O)c1cccc(-n2cccc2)c1
9	-0.7	.	COc1cc(C(=O)N(CCC#N)C2CCCCC2)cc(OC)c1OC
10	-1.9	.	O=C(CSc1ccc(Cl)cc1)Nc1ccc(F)c(F)c1F
11	4.0	.	O=C(NC1CCCCC1)Sc1ccccc1
12	.	1	CC(NC(=O)C1=NN(C2CCS(=O)(=O)C2)C(=O)CC1)c1ccc(S(N)(=O)=O)cc1 (stereo not given)
13	.	-11	Cc1cccc(N2CCN(C(C)C(=O)N(C)c3ccccc3)CC2)c1C (stereo not given)
14	.	7	CC(OC(=O)c1ccco1)C(=O)Nc1ccccc1-c1ccccc1 (stereo not given)
15	-1.4	.	CCOC(=O)c1cncc(C#CCOC(=O)c2c(-c3ccccc3)noc2C)c1
16	3.4	.	Cc1cccc(C(=O)Nc2ccc(N3CCN(C(C)C)CC3)cc2)c1
17	.	-16	CCn1nc(C(=O)OCC(=O)c2cc(C)n(Cc3cccs3)c2C)c2ccccc2c1=O
18	-1.8	16	CC(C)n1c(COc2ccc(Cl)cc2)nc2ccccc21
19	3.9	7	CCN1CC(=O)N(c2ccccc2OC)C1=S
20	-2.0	.	CSc1nnc(-c2ccccc2)n1C

Next section, overlapping the part above by 2 compounds.
entry	MgrA-DNA mod	S aureus helic	molecule
19	3.9	7	CCN1CC(=O)N(c2ccccc2OC)C1=S
20	-2.0	.	CSc1nnc(-c2ccccc2)n1C
21	0.6	.	FC(F)(F)c1ccccc1N=C1CCCc2ccccc21
22	.	-5	C=CCn1c(=S)[nH]c2sccc2c1=O
23	.	-3	CCCCN1C(=S)SC(C)(C)C1NO (stereo not given)
24	5.2	2	CCc1ccc(-c2cn3c(n2)SCC3)cc1
25	-2.1	2	C=CCN1C(=O)C(CC(=O)Nc2ccc(Cl)cc2)NC1=S (stereo not given)
26	.	-9	CC(C)NC(=S)N/N=C/C1CC=CCC1 (stereo not given)
27	.	-20	CC12CCC(C(=O)N3CCCc4ccccc43)(OC1=O)C2(C)C (stereo not given)
28	.	21	c1ccc(OCc2nnc(-c3ccccc3)o2)cc1
29	1.5	.	N#Cc1cnn2c(-c3ccccc3)ccnc12
30	-0.4	14	COc1cc2c3c(ccc2c(OC)c1OC)-c1[nH]ncc1CC3
31	2.9	-2	Cc1csc2nc(SCCC(=O)Nc3ccccc3)[nH]c(=O)c12
32	.	-1	O=C1c2ccccc2C(=O)N1CCc1nnn(Cc2ccc(Cl)cc2)n1
33	0.2	-9	CN(CCC#N)C(=O)c1cc2c(s1)-c1ccccc1S(=O)(=O)C2
34	.	-10	CCNC(=S)N/N=C/c1ccc(C)s1
35	.	-1	O=C1CCC(C(=O)OC2CCOC2=O)=NN1 (stereo not given)
36	.	-9	COCCN(Cc1ccccc1)C(=O)c1ccc2c(c1)NC(=O)CS2
37	2.8	9	Cc1nn(-c2cccc(Cl)c2)c2c1C(=O)C1C(=O)CCCC1N2 (stereo not given)
38	-3.5	9	CC1(C)CC2(C=CC(=O)CC2)CCO1 (stereo not given)
39	0.2	.	NC(=O)C1CCN(CCO)CC1
40	.	2	O=c1[nH]cnc2cc(F)ccc12
41	-2.5	.	Cc1cc(Cl)ccc1NC(=O)CC(C)CC(=O)O (stereo not given)
42	-0.7	-15	O=C(/C=C/c1ccccc1)NCCCN1CCOCC1
43	-1.4	-1	N/C(CC(=O)Nc1ccc(Cl)cc1)=N/O
44	1.3	.	O=C(O)C1CC(=O)N(Cc2ccco2)C1 (stereo not given)
45	.	-16	COCC(C)n1c(SCc2nnc(-c3ccccc3)o2)nc2ccccc2c1=O (stereo not given)
46	.	-12	COC(=O)c1c(C)[nH]c(C(=O)COC(=O)C23CC4CC(CC(NC(C)=O)(C4)C2)C3)c1C
47	2.9	.	CN1CCc2cccc3c2C1Cc1ccc(O)c(O)c1-3 (stereo not given)
48	-1.4	-1	CC1(C)COC(c2cccc(C#N)c2)OC1
49	-0.9	0	CC1C2CC(C(S(=O)(=O)N3CCOCC3)/C2=N/O)C1(C)C (stereo not given)
50	-3.1	.	COc1ccc(/C=N/NC(=O)CC#N)cc1OC
51	.	6	CC(Oc1cccc(Cl)c1)C(=O)NCc1ccc2c(c1)OCO2 (stereo not given)
52	.	-14	COc1ccc(CC2(C)NC(=O)NC2=O)cc1OC (stereo not given)
53	.	3	COc1ccc(CC(C(=O)O)C(=O)O)cc1OC
54	-8.3	.	Cc1nccc(-c2cccc(NC(=O)Nc3ccccc3)c2)n1
55	0.5	12	Cc1nn(Cc2ccccc2)c(C)c1NC(=O)c1noc2c1CCc1ccccc1-2
56	14	23&10	CN(C)c1nc(-c2ccccc2)[n+](C)s1
57	-0.2	-30	Cc1ccc(C)n1CCN1CCNCC1
58	.	9	CC(OC(=O)c1ccccn1)C(=O)N1CCc2ccccc21 (stereo not given)
59	0.5	.	COC(=O)c1ccc(NCN2C(=O)S/C(=C/c3ccc(SC)cc3)C2=O)cc1
60	-2.2	.	CCOc1ccc2nc(SCC(=O)Nc3ccccc3C(N)=O)sc2c1
61	0.0	5	COc1ccc2cc(CCNC(=O)COc3ccc4ccccc4c3)c(=O)[nH]c2c1
62	.	-9	O=C(CSc1nc2c(c(=O)n1Cc1ccco1)C1(CCCC1)Cc1ccccc1-2)c1cccs1
63	-6.9	12	CSc1oc(-c2ccccc2)nc1S(=O)(=O)c1ccccc1
64	-4.7	.	CCCCCCCCCCCCC[N+](C)(C)Cc1ccccc1
65	4.2	6	CN(Cc1ccccc1)C1CCNCC1
66	.	-14	CCCCSc1nnc(C)c(=O)[nH]1
67	.	14	COc1cc(/C=C/C(=O)O)ccc1OCc1c(C)noc1C
68	0.1	4	COc1ccc(C2C3C(=O)N(C(C)C)C(=O)C3ON2c2ccc(Cl)cc2)cc1 (stereo not given)
69	.	-17	CC1(C)CC(=O)c2c(C#N)sc(C#N)c2C1
70	-0.1	-3	COc1ccc(N=Cc2ccc[nH]2)cc1

Carrying on:
entry	MgrA-DNA mod	S aureus helic	molecule
71	.	1	CC(=O)Nc1ccc(C(=O)c2ccccc2)c(O)c1
72	2.0	9	O=C(NCCc1ccccc1)C1CCCN1S(=O)(=O)c1cccc2nsnc12 (stereo not given)
73	0.3	-2	O=C(Cn1c(=O)c2cccn2c2ccccc21)N1CCCCC1
74	.	4	O=C(NC1CCCC1)c1ccc2c(Cl)c3c(nc2c1)CCC3
75	0.1	.	COc1cccc(C(=O)Nc2nnc(CCS(=O)(=O)c3ccc(Br)cc3)s2)c1
76	-2.0	.	O=S(=O)(NCc1ccc(-c2csnn2)cc1)c1ccc(F)c(Cl)c1
77	2.0	.	COc1ccc2c(c1)c(CC(=O)N1CCOCC1)c(C)n2C(=O)c1ccc(Cl)cc1
78	3.0	18	CC(C)(C)CC(=O)NCc1cccs1
79	-0.2	10	Cc1ccc(-c2c(C(=O)NCCc3cccc(C)c3)oc(=O)c3ccccc23)cc1
80	.	11	O=C1CSC(c2ccc3c(c2)OCO3)N1 (stereo not given)
81	-1.9	2	Cc1nn(C(=O)COc2ccc(Cl)cc2Cl)c(N)c1-c1ccccc1
82	-0.9	6	C=CCNC(=O)CN1N=C(c2ccccc2)CCC1=O
83	.	-86	O=C1COc2ccc(C(=O)C[n+]3cccc([O-])c3)cc2N1
84	-0.8	5	O=C(C1=CCN(S(=O)(=O)c2ccccc2)CC1)N1CCCCC1
85	.	15	Cn1c(SCC(N)=O)nc2ccccc21
86	0.0	18	COc1ccc(-c2noc(N(C)CC(=O)Nc3cccc(OC)c3)n2)cc1
87	.	-12	NC(=O)c1c(NC(=O)CCN2C(=O)S/C(=C\c3cccs3)C2=O)sc2c1CCC2
88	-0.8	8	N#CC(C#N)=Cc1ccc(OCC(O)Cn2c3ccccc3c3ccccc32)cc1 (stereo not given)
89	-0.9	2	O=C(CCCC(=O)c1ccccc1)Nc1ccc(Cl)cn1
90	.	-3	COC(=O)COc1ccc2oc(=O)cc(-c3cc4ccccc4o3)c2c1
91	.	3	O=C(NC(CO)CCO)c1ccccc1 (stereo not given)
92	.	8	Cc1ccc(OCCCC(=O)N2CCOCC2)cc1
93	.	13	CN=C(c1ccccc1)N1CCN(c2ccc(OC)cc2)CC1
94	0.1	7	CCc1ccccc1-n1c(SCc2cc(=O)n3ccccc3n2)nc2[nH]ncc2c1=O
95	.	-6	Cc1ccc(CC(=O)OCC(=O)Nc2c(C#N)c(C)c(C)n2Cc2ccco2)cc1C
96	-0.2	1	COc1ccc(N2CCC(CNS(=O)(=O)c3cccc(C(F)(F)F)c3)C2)cc1 (stereo not given)
97	3.7	7	c1cncc(-c2nc3ccc4ccccc4c3c3c2CCCC3)c1
98	3.0	.	CCOc1ccc(NCN2C(=O)c3ccccc3C2=O)cc1
99	0.4	10	CC1CCCCN1CCCNC(=O)Cn1cccc1C(=O)c1ccccc1 (stereo not given)
100	1.4	8	CC1SC2(CCCCC2)NC1=O (stereo not given)
101	-1.1	9	Cc1ccc(-n2c3c(cc(C(=O)NC4CCSC4=O)c2=O)C(=O)CCC3)cc1 (stereo not given)
102	-1.7	.	Cc1ccc(S(=O)(=O)N2C(=O)/C(=C3\SC(=S)N(Cc4ccco4)C3=O)c3ccccc32)cc1
103	3.2	.	O=C(Oc1c(Cl)cc(Cl)c2cccnc12)c1cccs1
104	-1.9	11	CN(C)CCN1C(=O)C(O)=C(C(=O)c2ccco2)C1c1ccco1 (stereo not given)
105	.	-18	COc1ccccc1OCCCn1cc(/C=C2/C(=N)N3C=CSC3=NC2=O)c2ccccc21
106	-2.9	.	Cc1onc(-c2ccccc2)c1CNC(=O)C1CCCCC1
107	.	-7	Cc1nc(CC(=O)N/N=C/c2ccc(OCC(=O)O)cc2)cs1
108	-2.3	.	CCCc1c(O)ccc2c(=O)cc(C(=O)OC)sc12
109	0.6	-13	CCCCC1CCC(C(=O)Nc2noc3ccccc23)CC1 (stereo not given)
110	.	-4	CCn1c(SC(=O)NC2CCCCC2)nnc1-c1cccs1

The closing 4 compounds of the section above open the next one:
entry	MgrA-DNA mod	S aureus helic	molecule
107	.	-7	Cc1nc(CC(=O)N/N=C/c2ccc(OCC(=O)O)cc2)cs1
108	-2.3	.	CCCc1c(O)ccc2c(=O)cc(C(=O)OC)sc12
109	0.6	-13	CCCCC1CCC(C(=O)Nc2noc3ccccc23)CC1 (stereo not given)
110	.	-4	CCn1c(SC(=O)NC2CCCCC2)nnc1-c1cccs1
111	-0.8	.	COCc1cc(=O)[nH]c(SCC2CC2)n1
112	-1.5	.	CC(=O)c1nnn(-c2ccc(Cl)c(Cl)c2)c1C
113	-0.2	-1	O=c1/c(=C/c2cccnc2)sc2n1CN(c1ccccc1)CN=2
114	-4.8	-2	CC1CN(Cc2ccc(C#N)cc2Cl)CC(C)O1 (stereo not given)
115	.	-6	CSc1ncc(C(=O)N2CCN(Cc3ccccc3)CC2)c(-c2ccccc2)n1
116	.	-3	COc1ccccc1C(=O)COC(=O)COc1ccc(C#N)cc1
117	-0.6	3	CC(/C=C/c1ccccc1)=N\Nc1nc2c(c(=O)[nH]c(=O)n2C)n1CC(O)COC(C)C (stereo not given)
118	.	18	Cc1ncc2c(N)ncnc2n1
119	1.1	11	COC(=O)C1=C(N)Oc2cc(C)oc(=O)c2C1c1cccnc1 (stereo not given)
120	-1.5	.	CCNc1nc(SCc2ccc(Cl)cc2)nc2sc3c(c12)CCN(C)C3

The list goes on; the last 5 above are carried over.
entry	MgrA-DNA mod	S aureus helic	molecule
116	.	-3	COc1ccccc1C(=O)COC(=O)COc1ccc(C#N)cc1
117	-0.6	3	CC(/C=C/c1ccccc1)=N\Nc1nc2c(c(=O)[nH]c(=O)n2C)n1CC(O)COC(C)C (stereo not given)
118	.	18	Cc1ncc2c(N)ncnc2n1
119	1.1	11	COC(=O)C1=C(N)Oc2cc(C)oc(=O)c2C1c1cccnc1 (stereo not given)
120	-1.5	.	CCNc1nc(SCc2ccc(Cl)cc2)nc2sc3c(c12)CCN(C)C3
121	-1.7	13	COc1ccc(S(=O)(=O)N(C)C)cc1
122	-2.5	.	COc1ccc(-c2nnc(OC)c3ccccc23)cc1
123	.	21	COCCN1C(=O)N(c2cccc(C)c2)C(=O)C1CC(=O)Nc1cccc(F)c1 (stereo not given)
124	.	-4	O=C1CN(C(=O)CSCc2cc(=O)n3c4c(sc3n2)CCCC4)c2ccccc2N1
125	2.0	-3	CC(C)C1Cc2c(sc3nc(SCC(=O)Nc4ccccc4)nc(N)c23)CO1 (stereo not given)
126	-1.5	7	O=c1oc2ccccc2n1Cc1cc2c(cc1Br)OCO2
127	.	8	O=C(c1cc2ccccc2o1)N(CC1CCCO1)c1nc2ccccc2s1 (stereo not given)
128	0.2	-12	C(=C/c1ccccc1)/CN1CCN(Cn2nnc3ccccc32)CC1
129	.	-9	Cc1nc(=O)c(-c2ccccc2)c(C)n1-c1ccccc1O
130	-0.6	0	Cc1ccc(-n2c(=O)[nH]cc(C(=O)N3CCc4ccccc43)c2=O)cc1
131	.	-6	CN1/C(=C\C(=O)CSc2ncn[nH]2)C(C)(C)c2ccccc21
132	.	-13	C=CCNc1nnc(SCC(=O)NC(=O)c2ccccc2OC)s1

Screening results as filed in PubChem BioAssay.
